Screens: PubChem, several laboratories
RGS16-Gao: modulators of RGS16 binding to Galphao, primary screen, biochemical, human proteins, multiplexed bead flow cytometry; Regulator of G-protein signaling 16 (Homo sapiens) + Guanine nucleotide-binding protein …; bead-based flow cytometry RGS16-Galphao binding, fluorescence; actives lie on both sides; binding response (% of control), % at 10 µM; 0.38% of 220,000 active; AID 1441, 2008;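 active = below 25% or above 175%, edge rows of some plates excepted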;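 note: Galphao activated by GDP with aluminum fluoride before binding; 100% = wells without compound and 0% = beads without RGS; some results beyond the cut were filed as inactive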
Insulin prom inh: inhibitors of insulin promoter-driven GFP, primary screen, imaging, TRM-6 cells (human fetal islet line), eGFP reporter, cell count | AID 1273, 2008 | 0.9% of 130,000 active | reporter expression induced with tamoxifen | inhibition, % at 2 µM;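 active = inhibition above the mean plus 3 SD, with well images judged a real hit on visual review, cut at about 60% in these data, passing the limit was not always enough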
PKD1 kinase inh: inhibitors of human PKD1 kinase, biochemical, fluorescence polarization; Serine/threonine-protein kinase D1 (Homo sapiens), Q15139; PKD1 kinase fluorescence polarization assay; inhibition, %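 (about 10 µM by stock and volumes)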; 0.056% of 200,000 active; AID 797, 2007;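 active = inhibition of 50% or more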;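 note: controls were vehicle for no effect and a reference inhibitor for full effect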
Target sequence (Q15139 whole entry, looked up): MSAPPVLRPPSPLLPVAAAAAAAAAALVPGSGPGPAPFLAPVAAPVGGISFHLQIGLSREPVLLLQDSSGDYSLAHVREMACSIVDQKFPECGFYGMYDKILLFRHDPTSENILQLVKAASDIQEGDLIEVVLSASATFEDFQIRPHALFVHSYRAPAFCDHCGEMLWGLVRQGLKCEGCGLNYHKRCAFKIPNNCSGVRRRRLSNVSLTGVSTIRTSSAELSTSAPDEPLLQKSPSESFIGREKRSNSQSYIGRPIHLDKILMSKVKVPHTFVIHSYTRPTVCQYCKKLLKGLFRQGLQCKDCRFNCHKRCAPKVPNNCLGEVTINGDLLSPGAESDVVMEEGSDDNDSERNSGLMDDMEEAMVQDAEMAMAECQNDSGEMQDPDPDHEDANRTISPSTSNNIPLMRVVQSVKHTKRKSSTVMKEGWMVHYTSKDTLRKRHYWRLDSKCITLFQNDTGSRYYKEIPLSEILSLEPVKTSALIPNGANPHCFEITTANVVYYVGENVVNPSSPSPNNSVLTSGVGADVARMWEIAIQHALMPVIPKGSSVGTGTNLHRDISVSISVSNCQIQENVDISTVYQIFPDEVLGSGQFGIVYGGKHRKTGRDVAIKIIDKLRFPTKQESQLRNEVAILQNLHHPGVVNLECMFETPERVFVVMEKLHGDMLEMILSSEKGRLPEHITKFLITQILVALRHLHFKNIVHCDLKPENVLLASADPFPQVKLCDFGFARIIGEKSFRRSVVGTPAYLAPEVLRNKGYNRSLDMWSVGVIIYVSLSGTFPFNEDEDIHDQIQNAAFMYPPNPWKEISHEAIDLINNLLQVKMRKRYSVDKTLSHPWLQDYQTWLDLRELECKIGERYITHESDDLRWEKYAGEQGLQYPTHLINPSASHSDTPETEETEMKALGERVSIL
GALR2 agonist: GALR2 receptor agonists, primary screen, cell-based. activation, %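 (tested at 5 µM)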. GALR2-expressing cells, agonist activation read-out. AID 803, 2007. 0.48% of 140,000 active;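 active = above mean plus 3 SD of all compounds, about 5% in these data, not always enough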;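 note: 0% = vehicle buffer wells and 100% = reference agonist at full effect; tested in CHO reporter cells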
HSV augment: enhancers of HSV replication in host cells, fold increase, host cell viability. maximum fold increase. AID 1956, 2009. 0.005% of 220,000 active. HSV replication augmentation in cells;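 active = peak rise of 1.5-fold or more in the series; tested in PC3 cells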;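 note: first round at 10 µM; read as green reporter fluorescence; hits show the peak of a series up to 25 µM; 1 = signal of infected wells without compound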
Insulin prom inh cell count: further read-out of Insulin prom inh, marked with its call; normalized cell count, %; measured here: cell count, toxicity; reference of the scale not given here;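 cells exposed to compound for 48 h; stained nuclei by imaging scaled within each plate; lower means fewer cells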
HSV augment primary fold: recorded beside HSV augment, whose call it bears; fold increase; compound at 10 µM; measured here: primary screen fold increase 10 uM; tested in PC3 cells;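 GFP signal in the first replicate; 1 = infected wells without compound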
An asterisk follows results filed as active.

The opening five entries, ahead of the listing:
Screening CCOC(=O)C1CCN(C(=O)C2CCCCC2)CC1 returned RGS16-Gao 103.1, Insulin prom inh inactive, PKD1 kinase inh -0.1, GALR2 agonist -2.6, HSV augment inactive, Insulin prom inh cell count 63.2 and HSV augment primary fold 0.94.
Screening CC(C)CCNC(=O)C(=O)NCc1ccccc1 returned RGS16-Gao 92.7, HSV augment inactive and HSV augment primary fold 1.06.
`Cc1ccc(-n2[nH]c(C)c(C=NCc3ccncc3)c2=O)cc1` gave RGS16-Gao 97.0, HSV augment inactive and HSV augment primary fold 1.06.
`CN1CCN(c2cc(=O)n(C3CCCCC3)c(=O)[nH]2)CC1` gave RGS16-Gao 111.4, PKD1 kinase inh 2.8, GALR2 agonist -2.0, HSV augment inactive and HSV augment primary fold 0.88.
`CCOc1ccc(NS(=O)(=O)c2ccc3[nH]c(=O)cc(C(=O)O)c3c2)cc1` gave RGS16-Gao 101.4, Insulin prom inh 0.0, PKD1 kinase inh 0.6, HSV augment inactive, Insulin prom inh cell count 118.1 and HSV augment primary fold 1.16.

Results, from the start:
Screening CCOC(=O)C1CCN(C(=O)C2CCCCC2)CC1 returned RGS16-Gao 103.1, Insulin prom inh inactive, PKD1 kinase inh -0.1, GALR2 agonist -2.6, HSV augment inactive, Insulin prom inh cell count 63.2 and HSV augment primary fold 0.94.
Screening CC(C)CCNC(=O)C(=O)NCc1ccccc1 returned RGS16-Gao 92.7, HSV augment inactive and HSV augment primary fold 1.06.
`Cc1ccc(-n2[nH]c(C)c(C=NCc3ccncc3)c2=O)cc1` gave RGS16-Gao 97.0, HSV augment inactive and HSV augment primary fold 1.06.
`CN1CCN(c2cc(=O)n(C3CCCCC3)c(=O)[nH]2)CC1` gave RGS16-Gao 111.4, PKD1 kinase inh 2.8, GALR2 agonist -2.0, HSV augment inactive and HSV augment primary fold 0.88.
`CCOc1ccc(NS(=O)(=O)c2ccc3[nH]c(=O)cc(C(=O)O)c3c2)cc1` gave RGS16-Gao 101.4, Insulin prom inh 0.0, PKD1 kinase inh 0.6, HSV augment inactive, Insulin prom inh cell count 118.1 and HSV augment primary fold 1.16.
`Nc1c(-c2ccccc2)c(CSc2nc3ccccc3[nH]2)nn1-c1ccc(Cl)cc1` gave RGS16-Gao 134.8, Insulin prom inh -41.4, PKD1 kinase inh 1.9, GALR2 agonist -0.2, HSV augment inactive, Insulin prom inh cell count 71.8 and HSV augment primary fold 1.06.
`CC(=O)c1cccc(NC(=O)Nc2ccc3c(c2)N(C)C(=O)CS3)c1` gave RGS16-Gao 108.4, Insulin prom inh -33.3, PKD1 kinase inh 1.9, GALR2 agonist -0.9, HSV augment inactive, Insulin prom inh cell count 110.2 and HSV augment primary fold 0.9.
For Cc1ccc(SCc2cc(=O)n3[nH]cnc3n2)cc1 the results were RGS16-Gao 98.1, Insulin prom inh 36.1, PKD1 kinase inh -8.9, GALR2 agonist 0.0, HSV augment inactive, Insulin prom inh cell count 32.8 and HSV augment primary fold 1.04.
Screening CCN1C(=O)CC(C(=O)Nc2ccc(F)cc2)SC1=Nc1cccc(OC)c1 (stereo unspecified) returned RGS16-Gao 99.1, Insulin prom inh -70.6, PKD1 kinase inh 5.5, GALR2 agonist 0.7 and Insulin prom inh cell count 61.3.
Cn1c(-c2ccccc2)c(C(=O)CC#N)c2ccccc21 was read as RGS16-Gao 100.8, PKD1 kinase inh -4.5, HSV augment inactive and HSV augment primary fold 1.03.
C=C(C)c1cccc(C(C)(C)NC(=O)N2CCN(c3ccccc3)CC2)c1 was read as RGS16-Gao 97.7, HSV augment inactive and HSV augment primary fold 0.89.
Screening COc1cccc(C(=O)/C=C/Nc2ccc(S(=O)(=O)Nc3cccc(C(C)=O)c3)cc2)c1 returned RGS16-Gao 100.5, Insulin prom inh 2.3, PKD1 kinase inh -15.4, GALR2 agonist 1.1, HSV augment inactive, Insulin prom inh cell count 134.9 and HSV augment primary fold 0.95.
For CCOC(=O)C1CCCN(Cc2nc(N)nc(Nc3ccc(Cl)cc3)n2)C1 (stereo unspecified) the results were RGS16-Gao 101.0, Insulin prom inh 4.0, PKD1 kinase inh -0.7, GALR2 agonist 0.6, HSV augment inactive, Insulin prom inh cell count 96.8 and HSV augment primary fold 0.94.
`C/C(=N/NC(=O)CSc1nc2ccccc2n1C)c1ccncc1` gave RGS16-Gao 103.3, Insulin prom inh 17.9, PKD1 kinase inh -6.7, HSV augment inactive, Insulin prom inh cell count 113.2 and HSV augment primary fold 0.88.
`Clc1ccc(-c2c[n+](Cc3ccc(Cl)cc3Cl)c3n2CCCCC3)cc1` gave RGS16-Gao 102.9, HSV augment inactive and HSV augment primary fold 0.84.
Screening C=CCn1c(SCC(N)=O)nc2scc(-c3ccc(C)o3)c2c1=O returned RGS16-Gao 102.0, PKD1 kinase inh -3.6, HSV augment inactive and HSV augment primary fold 0.98.
c1ccc(C2[C@H]3CN(CC4CCCCC4)[C@H](c4ccccc4)C34CC2(c2ccccc2)C4)cc1 (stereo partly specified) was read as RGS16-Gao 97.1, HSV augment inactive and HSV augment primary fold 0.98.
Screening O=C(O)c1nn(-c2ccccc2C(F)(F)F)cc1O returned RGS16-Gao 94.5, HSV augment inactive and HSV augment primary fold 0.82.
CCOc1c2ccc(C(=O)NCC34CC5CC(CC(C5)C3)C4)cc2nn1CC was read as RGS16-Gao 95.1, PKD1 kinase inh 6.6, GALR2 agonist -2.1, HSV augment inactive and HSV augment primary fold 0.71.
`CSc1ccc(S(=O)(=O)NCc2ccc(C)cc2)cc1` gave RGS16-Gao 112.0, Insulin prom inh -11.1, PKD1 kinase inh -0.2, GALR2 agonist -1.2, HSV augment inactive, Insulin prom inh cell count 113.9 and HSV augment primary fold 0.95.
Cc1cc2nc(-c3ccc(NC(=O)C(C)C)cc3)oc2cc1C was read as RGS16-Gao 99.1, Insulin prom inh -26.3, PKD1 kinase inh -2.0, GALR2 agonist 1.6 and Insulin prom inh cell count 125.0.
Cc1cc(Oc2ccc(-c3ccccc3)cc2)n2ncnc2n1 was read as RGS16-Gao 103.1, PKD1 kinase inh -7.7, GALR2 agonist -1.5, HSV augment inactive and HSV augment primary fold 1.14.
For C/C(=N\NC(=O)C(=O)Nc1c(C)n(C)n(-c2ccccc2)c1=O)c1ccc(Cl)s1 the results were RGS16-Gao 99.8, HSV augment inactive and HSV augment primary fold 0.99.
Screening COc1ccc(CN(CCC#N)CCC2(c3ccccc3)CC(C)N(C)CC2C)cc1OC (stereo unspecified) returned RGS16-Gao 93.5, HSV augment inactive and HSV augment primary fold 0.87.
O=C1c2cccc3cccc(c23)C(=O)N1OS(=O)(=O)c1ccccc1 was read as RGS16-Gao 101.2, Insulin prom inh -35.7, PKD1 kinase inh -10.0, GALR2 agonist 1.3, HSV augment inactive, Insulin prom inh cell count 88.6 and HSV augment primary fold 0.78.
For COC(=O)c1cc(NC(=O)/C=C/c2ccc3c(c2)OCO3)cc(C(=O)OC)c1 the results were RGS16-Gao 99.3, Insulin prom inh 4.2, PKD1 kinase inh -7.0, GALR2 agonist -2.0, HSV augment inactive, Insulin prom inh cell count 128.6 and HSV augment primary fold 0.88.
CCOC(=O)c1cc2c(s1)-c1c(C)cccc1OC2 was read as RGS16-Gao 106.1, PKD1 kinase inh -1.6, GALR2 agonist -1.1, HSV augment inactive and HSV augment primary fold 0.73.
For Cc1cccc2cc(C#N)c(SCC(=O)N3CCC(C)CC3)nc12 the results were RGS16-Gao 105.7, PKD1 kinase inh -6.1, GALR2 agonist 0.9, HSV augment inactive and HSV augment primary fold 1.07.
For CN1CCN(CCC2Oc3cc([N+](=O)[O-])ccc3NC2=O)CC1 (stereo unspecified) the results were RGS16-Gao 104.2, PKD1 kinase inh -3.7, HSV augment inactive and HSV augment primary fold 0.98.
For C1=CN2CCC1C(c1ccccc1)C2 (stereo unspecified) the results were RGS16-Gao 101.1, Insulin prom inh 6.5, PKD1 kinase inh -9.5, GALR2 agonist -1.9, HSV augment inactive, Insulin prom inh cell count 73.3 and HSV augment primary fold 1.01.
Screening CC(C)(C)OC(=O)N1CCC(CNC(=O)c2ccc(F)cc2)CC1 returned RGS16-Gao 98.6, HSV augment inactive and HSV augment primary fold 1.14.
`Cc1ccc(S(=O)(=O)CCC(=O)OCC(=O)NC(N)=O)cc1` gave RGS16-Gao 103.4, HSV augment inactive and HSV augment primary fold 0.93.
Cc1n[nH]c(=S)n(NC(=O)/C=C/C(=O)Nn2c(=S)[nH]nc(C)c2=O)c1=O was read as RGS16-Gao 104.9, Insulin prom inh -152.9, PKD1 kinase inh 0.7, HSV augment inactive, Insulin prom inh cell count 100.8 and HSV augment primary fold 1.04.
Screening O=C(NC(=S)Nc1cc(Cl)ccc1N1CCOCC1)c1ccc(-c2cccc(Cl)c2)o1 returned RGS16-Gao 97.4, Insulin prom inh 33.3, PKD1 kinase inh -3.2, GALR2 agonist -3.1, HSV augment inactive, Insulin prom inh cell count 127.7 and HSV augment primary fold 0.97.
`CCOC(=O)c1ccc(Nc2c(CC)c(C)nc3ncnn23)cc1` gave RGS16-Gao 97.6, Insulin prom inh -73.7, PKD1 kinase inh -10.0, GALR2 agonist -0.5, HSV augment inactive, Insulin prom inh cell count 135.2 and HSV augment primary fold 1.05.
For COC(=O)c1nc(-n2nc(C)cc2C)ccc1Cl the results were RGS16-Gao 109.7, Insulin prom inh 0.0, PKD1 kinase inh -5.5, GALR2 agonist -0.4, HSV augment inactive, Insulin prom inh cell count 50.0 and HSV augment primary fold 0.76.
`CCOC(=O)C1(Cc2cccc(F)c2)CCN(C(=O)Cc2cccnc2)CC1` gave RGS16-Gao 95.8, PKD1 kinase inh -1.0, HSV augment inactive and HSV augment primary fold 1.03.
Screening Cc1cc(NC(=O)CSCc2nc(-c3cccc(F)c3)oc2C)no1 returned RGS16-Gao 102.1, PKD1 kinase inh -4.1, GALR2 agonist -2.4, HSV augment inactive and HSV augment primary fold 0.86.
`CCN(CC)C(=O)CCC(=O)Nc1ccc(C(=O)OC)cc1` gave RGS16-Gao 76.4, Insulin prom inh -64.3, PKD1 kinase inh -4.1, GALR2 agonist -1.4, HSV augment inactive, Insulin prom inh cell count 83.5 and HSV augment primary fold 0.93.
For CCOc1ccccc1NC(=O)CN1C(=O)C(=O)N(Cc2ccco2)C1=O the results were RGS16-Gao 100.2, PKD1 kinase inh 6.0, HSV augment inactive and HSV augment primary fold 0.88.
Screening COc1cccc(-c2csc(NNC(=O)c3cccs3)n2)c1 returned RGS16-Gao 95.8, HSV augment inactive and HSV augment primary fold 1.01.
COc1cc(C(F)(F)F)c(C(=O)N(C)Cc2cc(Cl)cc(Cl)c2)cn1 was read as RGS16-Gao 106.8, HSV augment inactive and HSV augment primary fold 0.95.
`CCC(=O)Nc1ccc2c(c1)ncn2-c1ccccc1` gave RGS16-Gao 102.0, Insulin prom inh -20.0, PKD1 kinase inh -1.3, GALR2 agonist -1.0, HSV augment inactive, Insulin prom inh cell count 104.0 and HSV augment primary fold 0.97.
Screening CCOc1ccc(-c2nnc(-c3ccncc3)o2)cc1OCC returned RGS16-Gao 100.3, Insulin prom inh -25.0, PKD1 kinase inh -0.8, HSV augment inactive, Insulin prom inh cell count 80.0 and HSV augment primary fold 0.99.
Screening NC(=O)CSc1nc2sc(-c3ccccc3)cc2c(=O)n1N returned RGS16-Gao 91.4, PKD1 kinase inh 0.5 and GALR2 agonist -0.6.
`Nc1cc2nc[nH]c2cc1N` gave RGS16-Gao 109.7, Insulin prom inh -57.1, PKD1 kinase inh 5.5, HSV augment inactive, Insulin prom inh cell count 53.3 and HSV augment primary fold 1.
`O=C(CSc1nnc(Cc2cc(=O)[nH]c(=O)[nH]2)n1-c1ccc(F)cc1)N1CCCCC1` gave RGS16-Gao 103.9, PKD1 kinase inh -11.4, GALR2 agonist -1.9, HSV augment inactive and HSV augment primary fold 1.05.
For Cc1ccc(C(=O)N2CC(=O)Nc3ccc(F)cc3C2c2ccccc2)cc1[N+](=O)[O-] (stereo unspecified) the results were RGS16-Gao 123.0, PKD1 kinase inh -6.8, GALR2 agonist -0.7, HSV augment inactive and HSV augment primary fold 0.91.
For COc1ccc(CC(=O)Nc2cc3oc4ccccc4c3cc2OC)cc1 the results were RGS16-Gao 90.8, PKD1 kinase inh -12.6, GALR2 agonist -0.5, HSV augment inactive and HSV augment primary fold 0.92.
